Screens: PubChem, several laboratories
GALR2 agonist = agonists of human galanin receptor 2 (GALR2). O43603. GALR2-expressing cells, agonist activation read-out. activation, %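 (tested at 5 µM)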. 140,000 compounds, 0.48% hits. AID 803;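 active means above mean plus 3 SD of all compounds, about 5% in these data, not always enough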;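 further: 0% = vehicle buffer wells and 100% = reference agonist at full effect; tested in CHO reporter cells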
RGS16-Gao = regulators of human RGS16-Galphao interaction; AID 1441; binding response (% of control), % at 10 µM; bead-based flow cytometry RGS16-Galphao binding, fluorescence; actives lie on both sides; 220,000 compounds, 0.38% hits;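 active means below 25% or above 175%, edge rows of some plates excepted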;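 further: Galphao activated by GDP with aluminum fluoride before binding; 100% = wells without compound and 0% = beads without RGS; some results beyond the cut were filed as inactive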
PKD1 inh = PKD1 (human) kinase inhibition | PKD1 kinase fluorescence polarization assay | inhibition, %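 (about 10 µM by stock and volumes)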 | 200,000 compounds, 0.056% hits;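 active means inhibition of 50% or more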;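 further: controls were vehicle for no effect and a reference inhibitor for full effect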
Target sequence (Q15139 whole entry, looked up): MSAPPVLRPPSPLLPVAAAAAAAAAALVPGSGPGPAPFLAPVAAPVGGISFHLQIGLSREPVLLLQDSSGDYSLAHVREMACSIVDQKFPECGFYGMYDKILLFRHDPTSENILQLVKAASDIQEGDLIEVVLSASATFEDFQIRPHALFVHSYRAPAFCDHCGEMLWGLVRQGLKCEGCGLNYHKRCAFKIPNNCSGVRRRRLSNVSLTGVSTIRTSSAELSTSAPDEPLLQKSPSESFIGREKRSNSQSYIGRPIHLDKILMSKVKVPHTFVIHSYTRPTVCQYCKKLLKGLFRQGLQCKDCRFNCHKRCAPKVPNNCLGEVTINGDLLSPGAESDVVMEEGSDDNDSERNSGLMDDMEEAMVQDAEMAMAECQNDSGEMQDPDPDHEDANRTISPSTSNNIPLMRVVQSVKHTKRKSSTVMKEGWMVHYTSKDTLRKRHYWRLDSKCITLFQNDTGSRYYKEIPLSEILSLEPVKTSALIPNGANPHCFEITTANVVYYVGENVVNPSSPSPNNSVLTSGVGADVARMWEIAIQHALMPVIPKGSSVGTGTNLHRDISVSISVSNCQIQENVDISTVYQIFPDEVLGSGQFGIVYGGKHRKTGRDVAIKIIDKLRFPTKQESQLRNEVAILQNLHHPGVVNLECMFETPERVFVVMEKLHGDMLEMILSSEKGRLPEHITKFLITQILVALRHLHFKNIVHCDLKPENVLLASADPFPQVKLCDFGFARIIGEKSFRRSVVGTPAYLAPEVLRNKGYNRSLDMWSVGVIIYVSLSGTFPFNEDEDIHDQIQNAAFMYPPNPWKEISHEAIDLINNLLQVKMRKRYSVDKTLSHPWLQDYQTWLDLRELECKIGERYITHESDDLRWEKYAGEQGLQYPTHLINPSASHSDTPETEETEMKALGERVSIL
HSV augment = HSV replication enhancement; HSV replication augmentation in cells, fold increase; maximum fold increase; 220,000 compounds, 0.005% hits;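 active means peak rise of 1.5-fold or more in the series; tested in PC3 cells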;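 further: first round at 10 µM; read as green reporter fluorescence; hits show the peak of a series up to 25 µM; 1 = signal of infected wells without compound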
INS promoter inh = TRM-6 insulin promoter activity inhibition; TRM-6 cells (human fetal islet line), insulin promoter-eGFP reporter, imaging; reporter expression induced with tamoxifen; AID 1273; 130,000 compounds, 0.9% hits; inhibition, % at 2 µM;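 active means inhibition above the mean plus 3 SD, with well images judged a real hit on visual review, cut at about 60% in these data, passing the limit was not always enough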
INS promoter inh cell count = recorded beside INS promoter inh, whose call it bears; normalized cell count, %; measured here: cell count, toxicity; reference of the scale not given here;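 cells exposed to compound for 48 h; stained nuclei by imaging scaled within each plate; lower means fewer cells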
HSV augment primary fold = further read-out of HSV augment, marked with its call; fold increase; compound at 10 µM; measured here: primary screen fold increase 10 uM; tested in PC3 cells;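 GFP signal in the first replicate; 1 = infected wells without compound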
Active calls of the source: *; i = inactive; . = no result given.

Structure,GALR2 agonist,RGS16-Gao,PKD1 inh,HSV augment,HSV augment primary fold,INS promoter inh,INS promoter inh cell count
CCOc1ccc(Br)cc1S(=O)(=O)Nc1cccc(S(=O)(=O)N(C)C)c1,-0.6,105,-3,i,1,-25,90
CC(C)(C)NS(=O)(=O)c1ccc(CCC(=O)Nc2ccc3c(c2)OCO3)cc1,-1.1,97,-1,i,0.97,-350,105
COc1ccc(CCNC(=O)CCc2nc3ccccc3[nH]2)cc1OC,.,105,-1,i,0.94,.,.
N/C(=N\N=C\c1ccc2c(c1)OCO2)SC1CC(=O)N(c2ccc(C(=O)O)cc2)C1=O (stereo unspecified),.,103,-3,i,0.91,.,.
Cc1ccc(-c2nc3ccccc3nc2Cl)cc1,.,107,2,i,1,.,.
Cc1oc(-c2cc(F)ccc2F)nc1CN1CCN(c2ncnc3ccccc23)CC1,.,101,0,i,0.94,12,85
O=C(NCc1ccncc1)Nc1ccccc1Cl,-0.9,103,0,i,1.1,22,86
O=c1sc(Nc2ccccc2)nc2ccsc12,0.7,102,6,i,0.68,35,65
COC(=O)C1CCN(C(=O)COC(=O)Cc2c[nH]c3ccccc23)CC1,-1.9,96,0,i,1,.,.
COc1ccc(C(=O)N/N=C/C(C)c2ccccc2)cc1OC (stereo unspecified),-0.4,106,-6,i,1,21,92
COc1ccc2[nH]c(=O)c(CNc3ccccc3)cc2c1,-0.3,88,-16,i,0.97,17,62
O=C(Nc1ccccc1)N(Cc1cccs1)C1CCCC1,-1.7,117,-10,i,0.96,36,91
CC(C(=O)c1ccc(-c2ccccc2)cc1)[n+]1ccccc1 (stereo unspecified),-1.9,109,-1,i,0.82,.,.
CCn1c(SCC(=O)Nc2ccc(C)cc2)nnc1-c1ccccn1,.,101,.,i,1.1,.,.
CC(C)(C)c1ccc(CNC(=O)c2ccc3c(c2)NC(=O)CO3)cc1,.,99,-6,i,0.93,.,.
Fc1cccc(Cl)c1CSc1nnc(CN2CCOCC2)n1-c1ccccc1,-1.4,103,-11,i,1,-5,101
Cc1cc(=O)oc2c3c(ccc12)OC/C3=N/N,.,101,.,i,1.1,.,.
COC(=O)c1cn(NC(=O)C2CCC(C(C)(C)C)CC2)c(=O)c2ccccc12 (stereo unspecified),-0.4,89,-10,i,0.91,-18,105
CCCCCCCCS(=O)C1CCS(=O)(=O)C1 (stereo unspecified),-0.8,103,-9,i,1.1,26,151
CCOc1cc(S(=O)(=O)N2CC=C(c3ccc(F)cc3)CC2)c(OCC)cc1-n1cnnn1,-0.8,99,-2,i,0.9,-109,34
CC(C)OC(=O)CN1C(=O)C(=O)c2ccccc21,-1.6,98,4,i,1,-23,75
C=CCn1c(SCc2csc(C)n2)nc2sc3c(c2c1=O)CCC(C)C3 (stereo unspecified),1.0,106,1,i,0.69,-106,77
COc1ccc(NC(=S)N(C)CC2COc3ccccc3O2)cc1 (stereo unspecified),.,101,2,i,0.98,.,.
N#Cc1cc2[nH]c3ccccc3c2[n+](-c2ccc([N+](=O)[O-])cc2)c1N,.,108,-4,i,0.79,29,122
O=C(Cn1cncn1)NCc1cccc2ccccc12,0.3,104,-10,i,1,32,96
O=C(N/N=C/c1ccc(O)cc1)c1cccc(N/N=C/c2ccc(O)cc2)c1,.,100,.,i,0.97,.,.
COc1cccc(OCCNc2cc(Cl)ccc2[N+](=O)[O-])c1,-2.2,116,-5,i,0.9,78*,78*
CC1=C(C(=O)N2CCOCC2)C(c2ccccc2F)C2=C(CCCC2=O)N1 (stereo unspecified),0.4,105,-9,i,0.9,-25,88
COCCN(Cc1cc2cc3c(cc2n2nnnc12)OCO3)C(=O)c1ccccc1F,-1.2,101,-4,i,0.95,19,114
Cc1cccc(C(C(N)=O)c2ncc(C(F)(F)F)cc2Cl)c1 (stereo unspecified),.,100,0,i,0.93,.,.

The list goes on.
Structure,GALR2 agonist,RGS16-Gao,PKD1 inh,HSV augment,HSV augment primary fold,INS promoter inh,INS promoter inh cell count
COc1ccccc1-c1c(C(F)(F)F)oc2cc(OS(C)(=O)=O)ccc2c1=O,-0.4,96,3,i,0.93,14,117
Cc1nn(CC(=O)NCc2cccc3ccccc23)c(=O)c2ccccc12,-4.3,99,-12,i,0.85,28,79
O=C(NC(=S)N1CCN(c2ccc([N+](=O)[O-])cc2)CC1)c1ccccc1,.,100,6,i,0.74,.,.
CCc1ccc(NC(=O)C(=O)N/N=C(\C)CC(=O)NCc2ccc(Cl)cc2)cc1,.,97,-2,i,0.91,.,.
CC(C)(C)NC(=O)COC(=O)CNC(=O)c1cc(Cl)cc([N+](=O)[O-])c1,-0.7,94,-6,i,1.1,.,.
O=C(NC1=NCCS1)c1ccncc1,-2.4,103,3,i,0.83,.,.
Cc1cc(N2CCN(C)CC2)nc2ccc(NC(=S)N3CCCCC3)cc12,.,99,0,i,0.76,.,.
COc1ccc(C(=O)CC(Nc2ccc([N+](=O)[O-])cc2)c2ccc(Cl)cc2)cc1 (stereo unspecified),-5.8,77,-2,i,0.94,33,79
Cc1cc(C(=O)N/N=C/C=C/c2ccccc2)c(C)o1,-1.4,108,-1,i,0.88,.,.
CCn1cc(CCC(=O)O)c(C)n1,.,158,-3,i,1,-55,128
CCc1cccc(OCCCN2C(=O)NC(C)(C)C2=O)c1,-0.8,100,-5,i,0.73,.,.
NNC1=N[C@H]2CS(=O)(=O)C[C@H]2S1,0.2,141,-5,i,1.1,.,.
CCCCc1cc(=O)oc2cc(OCc3nn[nH]n3)ccc12,.,97,.,i,0.94,.,.
CCCOc1ccc(C(=O)NC(=S)Nc2nc3ccccc3s2)cc1,-0.8,104,-9,i,1,.,.
O=C1NCCCC1C(=O)NCCNC(=O)C(F)(F)F (stereo unspecified),-0.3,81,-4,i,1,-39,117
O=C(c1cccs1)n1nc(-c2ccc(Cl)cc2)nc1NCc1ccco1,-0.9,110,-2,i,0.73,-31,91
O=C(CN1CCCCCC1)Nc1ccccc1,.,101,0,i,1.1,.,.
CCN(c1ccccc1)S(=O)(=O)c1cc(C(=O)Nc2ccccc2Cl)ccc1F,-0.1,104,5,i,1.2,28,91
CCN(CC)C(=O)COc1ccc(N(C)S(=O)(=O)c2ccc(NC(C)=O)cc2)cc1,.,85,.,i,0.93,.,.
COc1ccccc1OCC(=O)N/N=C1/C=C(C)CC1,.,99,0,i,0.99,.,.
Cc1ccc[n+](-c2[nH]c(=O)sc2/C=N/N=C(\[O-])CCn2c3ccccc3c3ccccc32)c1,.,133,.,i,0.86,.,.
O=C(CSc1ccc(-c2ccc3c(c2)OCO3)nn1)Nc1nccs1,.,99,5,i,0.91,-14,48
Cn1c(=O)c2c(nc(N3CCCCCC3)n2CC(=O)c2ccc(Br)cc2)n(C)c1=O,0.0,108,-9,i,1,.,.
O=C(O)c1ccc(CS(=O)c2cccc(C(F)(F)F)c2)o1 (stereo unspecified),-3.4,102,-3,i,1.1,.,.
Cc1ccc(S(=O)(=O)/N=C(\c2ccccc2)N(C)S(=O)(=O)c2ccccc2)cc1,-0.4,103,6,i,1,-45,69
O=C(O)c1ccc(/C=N/NC(=O)c2ccc(NS(=O)(=O)c3cccs3)cc2)cc1,.,99,.,i,1,.,.
COc1ccc(NC(=O)C2CCCN(S(=O)(=O)c3ccc(C)cc3)C2)cc1OC (stereo unspecified),-1.8,102,-5,i,1.1,24,157
COc1ccccc1/C=C1\NC(=S)N(CC2CCCO2)C1=O (stereo unspecified),-1.3,98,1,i,0.86,-61,87
CC(C)C(=O)NCCc1nc2ccccc2n1CCOc1ccccc1,-2.3,117,-4,.,.,.,.
CC(C)C(NC(=O)OCc1ccccc1)C(=O)O (stereo unspecified),-0.3,92,5,i,0.94,-29,119

Reformatted: entries from further up
Second line of a record – GALR2 agonist	RGS16-Gao	PKD1 inh	HSV augment	HSV augment primary fold	INS promoter inh	INS promoter inh cell count
- CCn1cc(CCC(=O)O)c(C)n1
    .	158	-3	i	1	-55	128
- CCc1cccc(OCCCN2C(=O)NC(C)(C)C2=O)c1
    -0.8	100	-5	i	0.73	.	.
- NNC1=N[C@H]2CS(=O)(=O)C[C@H]2S1
    0.2	141	-5	i	1.1	.	.
- CCCCc1cc(=O)oc2cc(OCc3nn[nH]n3)ccc12
    .	97	.	i	0.94	.	.
- CCCOc1ccc(C(=O)NC(=S)Nc2nc3ccccc3s2)cc1
    -0.8	104	-9	i	1	.	.
- O=C1NCCCC1C(=O)NCCNC(=O)C(F)(F)F (stereo unspecified)
    -0.3	81	-4	i	1	-39	117
- O=C(c1cccs1)n1nc(-c2ccc(Cl)cc2)nc1NCc1ccco1
    -0.9	110	-2	i	0.73	-31	91
- O=C(CN1CCCCCC1)Nc1ccccc1
    .	101	0	i	1.1	.	.
- CCN(c1ccccc1)S(=O)(=O)c1cc(C(=O)Nc2ccccc2Cl)ccc1F
    -0.1	104	5	i	1.2	28	91
- CCN(CC)C(=O)COc1ccc(N(C)S(=O)(=O)c2ccc(NC(C)=O)cc2)cc1
    .	85	.	i	0.93	.	.
- COc1ccccc1OCC(=O)N/N=C1/C=C(C)CC1
    .	99	0	i	0.99	.	.
- Cc1ccc[n+](-c2[nH]c(=O)sc2/C=N/N=C(\[O-])CCn2c3ccccc3c3ccccc32)c1
    .	133	.	i	0.86	.	.

(cont.)
Structure,GALR2 agonist,RGS16-Gao,PKD1 inh,HSV augment,HSV augment primary fold,INS promoter inh,INS promoter inh cell count
O=c1c2cc(-c3ccccc3)sc2nc2n1N=C(c1cccs1)CS2,.,115,.,i,1,.,.
O=C(CCC(=O)c1ccc(Br)cc1)Nc1cccnc1,.,116,7,i,1.1,.,.
CCCN(CCC)CCNC(=S)Nc1ccc2nc3n(c(=O)c2c1)CCCCC3,.,99,-3,i,0.87,-27,123
O=c1cc(COc2ccc(Cl)c(Cl)c2)nc2sccn12,.,100,.,i,0.96,.,.
c1ccc(N=P(c2nc3ccccc3o2)(N2CCOCC2)N2CCOCC2)cc1,-1.2,84,-5,i,0.9,-8,108
Cc1ccc(N(C)C(=O)N2CCN(c3ccccn3)CC2)cc1,-1.8,106,4,i,0.98,.,.
Oc1c(Br)cc(Cl)cc1C=Nc1ccc(N2CCOCC2)cc1,.,93,0,i,1.1,14,115
N#Cc1ccccc1CSc1nc2ccsc2c(=O)n1Cc1ccccn1,0.5,56,-3,i,1,-22,86
Cc1cc(Cl)ccc1OCCCC(=O)NCCCn1ccnc1,.,68,1,i,0.97,.,.
Cc1ccc(C)c(OCc2nnc(SCC(=O)NC(=O)NCc3ccco3)o2)c1,.,97,0,i,0.98,.,.
Cc1c(NC(=O)c2cc(CC(C)C)on2)c(=O)n(-c2ccccc2)n1C,-2.7,95,-6,i,0.96,.,.
CCOC(=O)c1c(C)[nH]c(C)c1C(=O)COC(=O)c1c(OC)cccc1OC,-1.4,103,14,i,0.89,13,156
CCN(CC)S(=O)(=O)c1ccc(C)c(NC(=O)c2cc(C)oc2C)c1,.,110,-1,i,0.91,29,84
COc1cc(NC(=O)CN2C(=O)c3ccccc3C2=O)c(C(=O)O)cc1OC,-2.4,102,0,i,0.94,0,29
CC1CCN(S(=O)(=O)c2ccc(C(=O)N3CCN(c4ccccc4F)CC3)cc2)CC1,.,100,-5,i,1,.,.
CCCCOCC(O)Cn1c(C)nc2ccccc21 (stereo unspecified),-3.4,114,-7,i,1,3,122
COCCn1c(C(C)C)nc2sc3ccccc3c(=O)c2c1=O,-3.0,99,-1,i,0.81,23,93
COc1ccc(Br)cc1CN(C)CC(=O)Nc1cc([N+](=O)[O-])ccc1OC,-1.1,99,-11,i,0.97,.,.
COc1ccc(C2CC(c3ccc(C)cc3)Nc3ncnn32)cc1 (stereo unspecified),-1.4,101,-6,i,1,.,.
CC(=O)NC(c1ccc(F)cc1)c1cccnc1 (stereo unspecified),-1.5,110,-3,i,0.42,0,99
CCSc1nnc(-c2ccc(Cl)cc2)c2ccccc12,-1.5,115,-10,i,0.83,-29,101
CC1=NN(c2ccccc2)C(=O)/C1=C/C=C/C=C/N(C)C,.,107,-6,i,1.2,-47,84
CCOc1ccc(-n2c(C)nc3cc(C(=O)NCc4ccco4)ccc32)cc1,-1.4,107,-9,i,0.85,-13,83

Compounds as they come; 1.2% or so of the library scored in one or more.
